# NPYLR7 agonist = mosquito NPYLR7 agonism | HEK293T NPYLR7/Galpha15, GCaMP6s calcium fluorescence | AID 1259423 | 270,000 tested, 0.15% active | activation, % at 10 µM; in the data active = activation above about 40%;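 note: 0% = vehicle and 100% = reference agonist at the receptor; some compounds past the cut are filed as inactive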
# NPYLR7 agonist max-min = also measured in NPYLR7 agonist; calls as there; activation, %; measured here: Max-Min RFU normalised activation; some inactives read as strong as hits;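 span of the calcium signal over five minutes; 0% = vehicle and 100% = native peptide agonist; compound fluorescence can raise it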
# The depositor's hits bear a star; & = joins results of further samples. Only part of the results is shown (hit frequency here may not be typical).
SMILES,NPYLR7 agonist,NPYLR7 agonist max-min
Cc1nc(C)c(Cc2cccc(C(F)(F)F)c2)c(N2CCN(C(=O)CC(C)(C)C)CC2)n1,3.4,12.5
O=C(CC(F)(F)F)N1CCC(C2CCN(c3ncccn3)CC2)C1 (stereo not drawn),6.2,3.5
O=C(Cn1[nH]c(=O)ccc1=O)N1CCCC2(C=Cc3ccccc3O2)CC1 (stereo not drawn),-0.9,-4.9
Cc1cncc(C(=O)N2CC(c3ccccn3)C2)c1,1.6,0.7
C#CC(C)(CC)OCC(O)CN1CC(C)CC(C)C1 (stereo not drawn),0.5,7.7
COC(C)(C)CC(C)NC1CCN(S(C)(=O)=O)CC1 (stereo not drawn),21.1&19.5,5.7&10.4
CCCCSc1nnc2c(n1)OC(c1cc(Br)c(O)c(OCC)c1)Nc1ccccc1-2 (stereo not drawn),23.1,31.7
Cc1noc(C)c1C(=O)N1CCC1(C)C(=O)NCc1ccc2c(c1)OCO2 (stereo not drawn),0.8,1.0
COc1ccc(-c2c(C)c3ccc4c(c3oc2=O)CN(Cc2ccncc2)CO4)cc1,-8.4,-15.5
O=C(/C=C/c1ccccc1)N(CCn1cccn1)c1nc2ccccc2s1,-5.0,-10.2
Cc1cc(C)cc(C(=O)NCCCNS(C)(=O)=O)c1,10.9,8.2
O=C(NCc1cnn2ccccc12)NC1CCCC1,8.7,1.3
COc1ccc(-c2nc(SCc3ccccc3)n[nH]2)cc1,12.9,6.7
O=C(NNC(=O)c1cccs1)NC12CC3CC(CC(C3)C1)C2,-6.8,-15.8
COc1cccc(OC)c1C(=O)N1CC(=O)N2CCc3c(F)cccc3C2C1 (stereo not drawn),-5.5,6.1
C=C(C)C(=O)N1CCC(n2c(=O)oc3c(C)cc(C)cc32)CC1,12.0,7.9
C=CCCOC(=O)N1c2cccc3c2[C@@H](C[C@H]1C(=O)NC)CN(c1ccccc1)C3=O,-0.8,3.1
CC(NC(=O)CCNC(=O)c1ccccc1F)c1cn2ccsc2n1 (stereo not drawn),-1.1,10.8
Cc1ccc(C(=O)Nc2cc(C(=O)N3CCC(C)CC3)cn(C)c2=O)cc1C,-2.0,-4.5
NC(Cc1ccc(C(F)(F)F)cc1)c1csc(Nc2cc(Oc3ccccc3)ncn2)n1 (stereo not drawn),-3.3,-6.4
CCOC(=O)CCCS(=O)(=O)NCc1ccc(Cl)cc1,5.3,4.0
COc1ncc(Cl)c(NCCCn2nc3n(c2=O)CCCC3)n1,-0.7,20.0
COc1ccc(-c2nnc3ccc(SCC(=O)N4CCCCC4)nn23)cc1,1.2,7.6
Cc1ccc(C(=O)NCc2ccoc2C)cc1S(=O)(=O)NCC#N,5.6,5.3
O=C(c1ccccc1)c1ccc2c(c1)N=C1CCCC(=O)C1C(c1ccco1)N2 (stereo not drawn),-6.8,-16.0
COC(=O)c1ccc2c(c1)C(=O)N(c1cccc(Cl)c1)C2=O,0.4,-4.6
COc1ccccc1C(C)(C)NCn1nc(C)sc1=S,-1.1,-1.2
Cc1cc2cc(NC(=O)c3ccc4c(c3)S(=O)(=O)N(C(C)C)C4=O)ccc2[nH]1,20.5,16.2
Cc1c(/C=C2/C=c3ccccc3=C2O)cc(C#N)n1C,1.4,0.9
NC(=S)N=C1CCN(c2ccccc2)N1,1.8,60.2
O=C(c1cc(C(F)(F)F)ccc1F)N1CCN(CCCOC(c2ccc(Cl)cc2)c2ccc(Cl)cc2)CC1,-0.5,-5.8
COc1ccc(CCN(C)C(=O)c2cc(-c3ccccc3F)nc3cc(-c4ccccc4)nn23)cc1OC,-6.6,-2.4
CCOC(=O)c1c(N)nn(C(=O)c2ccccc2)c1-c1ccccc1,-12.2,-17.3
CCOc1ccc(NC(=O)N(CCC#N)Cc2ccccc2)cc1,7.8,5.8
COc1ccc(-n2sc3c(c2=S)-c2ccccc2NC3(C)C)cc1OC,2.7,-0.5
Cc1sc2nc(CN3CCOCC3)nc(Sc3nnnn3C3CCCC3)c2c1C,7.0,11.1

# No new results follow: an excerpt of the list.
SMILES,NPYLR7 agonist,NPYLR7 agonist max-min
Cc1nc(C)c(Cc2cccc(C(F)(F)F)c2)c(N2CCN(C(=O)CC(C)(C)C)CC2)n1,3.4,12.5
O=C(CC(F)(F)F)N1CCC(C2CCN(c3ncccn3)CC2)C1 (stereo not drawn),6.2,3.5
O=C(Cn1[nH]c(=O)ccc1=O)N1CCCC2(C=Cc3ccccc3O2)CC1 (stereo not drawn),-0.9,-4.9
Cc1cncc(C(=O)N2CC(c3ccccn3)C2)c1,1.6,0.7
C#CC(C)(CC)OCC(O)CN1CC(C)CC(C)C1 (stereo not drawn),0.5,7.7
COC(C)(C)CC(C)NC1CCN(S(C)(=O)=O)CC1 (stereo not drawn),21.1&19.5,5.7&10.4
CCCCSc1nnc2c(n1)OC(c1cc(Br)c(O)c(OCC)c1)Nc1ccccc1-2 (stereo not drawn),23.1,31.7
Cc1noc(C)c1C(=O)N1CCC1(C)C(=O)NCc1ccc2c(c1)OCO2 (stereo not drawn),0.8,1.0
COc1ccc(-c2c(C)c3ccc4c(c3oc2=O)CN(Cc2ccncc2)CO4)cc1,-8.4,-15.5
O=C(/C=C/c1ccccc1)N(CCn1cccn1)c1nc2ccccc2s1,-5.0,-10.2
Cc1cc(C)cc(C(=O)NCCCNS(C)(=O)=O)c1,10.9,8.2
O=C(NCc1cnn2ccccc12)NC1CCCC1,8.7,1.3
COc1ccc(-c2nc(SCc3ccccc3)n[nH]2)cc1,12.9,6.7
O=C(NNC(=O)c1cccs1)NC12CC3CC(CC(C3)C1)C2,-6.8,-15.8

# Remaining list, next part.
SMILES,NPYLR7 agonist,NPYLR7 agonist max-min
CCCCCCOc1ccc(C(=O)NNS(=O)(=O)c2ccc(C(=O)OC)cc2)cc1,-0.6,10.3
COCC(CCO)NC(=O)CCCc1ccccc1 (stereo not drawn),-1.2,-4.8
CNC(=O)Cc1csc(Nc2ccc(OC(F)(F)F)cc2)n1,5.7,-1.0
Nc1ccnn1C1CCCCC1,-5.0,-5.6
O=C(O)c1c(OCC2CC2)nn2ccsc12,11.4,8.4
COc1cccc(-c2cnc(-c3cccc(CNC(=O)c4cc(Cl)cc(Cl)c4)c3)[nH]2)c1,2.9,0.4
CC(=O)c1ccc(N2C(=O)CC(c3c(C)[nH]n(-c4nc5ccccc5s4)c3=O)C2=O)cc1 (stereo not drawn),-3.0,-10.3
CCCc1cc(C(=O)OCC)nn1C1CCN(C(=O)c2c(F)cccc2Cl)CC1,4.2,4.7
O=C(NCCc1cccc(Cl)c1)c1ccccc1SCC(=O)N1CCCC1,10.6,3.8
Cc1c(CN(Cc2ccccn2)CC(C)C)c(=O)n(-c2ccccc2)n1C,14.8,-0.1
Cn1ncc(C(=O)N2CCN(C(c3ccccc3)c3ccc(Br)cc3)CC2)c1Cl (stereo not drawn),-2.0,-0.6
CN(C1=NS(=O)(=O)c2ccccc21)c1ccc(O)cc1,7.0,7.2
c1ccc([P+](Cc2nc3ccccc3[nH]2)(c2ccccc2)c2ccccc2)cc1,9.3,9.9
COc1ccccc1C(=O)NCC(=O)N=Nc1c(O)n(Cc2ccccc2)c2ccccc12,2.5,-1.3
Cc1nc2c(C)cccn2c(=O)c1NC(=O)c1cccc2ccccc12,3.8,1.0
COc1cccc(NC(=O)c2cccnc2Nc2cccc(Cl)c2)c1,2.2,-5.9
CC1CCN(C(=O)[C@H](CC(=O)OC2CCCCC2)NC(=O)OC(C)(C)C)CC(C)(C)C1 (stereo partly drawn),-13.0,-19.7
CNc1cncc(-c2ccc(O)cc2C)n1,-1.7,-3.2
COCCNC(=O)COC(=O)c1ncc(Cl)c(Cl)c1Cl,0.5,29.0
Cc1cccc(S(=O)(=O)Nc2ccc(Nc3ccc(-n4ccc(C)n4)nn3)cc2)c1,-5.2,-9.4
c1csc(Cn2nnnc2SCc2cc(-c3cccs3)on2)c1,4.6,5.5
CCC1CN(C(=O)c2cnc(C3CC3)nc2)CCC(=O)N1Cc1ccccc1 (stereo not drawn),-3.6,-3.6
Cc1ccc(S(=O)(=O)N2CCC(CCN3CCOCC3)CC2)c(C)c1,9.0,5.8
COc1ccc(-c2nccc3[nH]nc(-c4ccccc4)c23)cc1,5.3,3.7
COc1ccc(CN(C)C(=O)c2n[nH]c(C)c2Br)cc1F,2.3,2.4
CCCCOC(=O)c1c(C)nc2c(c1-c1ccccn1)C(O)CCC2 (stereo not drawn),-7.0,-10.6
CCCCC(=O)Nc1ccc(-n2nc(OCCOCC)nc2-c2ccccc2F)cc1,25.0,34.9
CC(C1CC1)N(Cc1ccccc1)C(=O)Nc1cccc(C#N)c1 (stereo not drawn),0.8,0.4
O=C(Cn1cnc2ccccc21)NN=Cc1cc(Br)ccc1O,-3.4,-6.2
CCCc1cc(C(=O)NC2C=CS(=O)(=O)C2)cs1 (stereo not drawn),6.0,4.6
CCOC(=O)c1nnn(C(CC)C(=O)Nc2c(C)cccc2C)c1C(=O)OCC (stereo not drawn),-7.1,-14.3
O=C(COc1cc(=O)n2ccccc2n1)NCc1ccco1,-6.0,0.9
COc1cn(CC(=O)NC2CCCCC2)c(CSc2nccc(C)n2)cc1=O,-6.6,-5.0
Cc1nc2c(cnn2C(C)C)cc1C(=O)OC1CC(C)OC1=O (stereo not drawn),-4.7,-7.7
Cc1ccoc1C(=O)N1CCCC(c2nn(C)c(=O)n2-c2ccccc2)C1 (stereo not drawn),13.7,3.6
CNC(=O)C1CN(C(=O)CCl)c2ccccc2O1 (stereo not drawn),27.7,16.5
COc1ccc(OC)c(-c2nc(CN3CCCn4nc(C)cc4C3)c(C)o2)c1,0.7,-7.1
COc1cccc(CN2CCN(Cc3ccc4cc(Cl)ccc4n3)CC2CCO)c1 (stereo not drawn),2.5,-2.5
O=C(Cn1[nH]c(=O)c2ccccc2c1=O)OCc1cc(=O)n2ccsc2n1,-0.2,6.1
CN(Cc1ccccc1)CC1CCN(CCN2CCOC2=O)CC1,8.9,6.6
COCCN(CC(=O)N(Cc1ccc2c(c1)OCO2)Cc1ccc(C)o1)C(=O)c1ccccc1,-9.6,-9.1
COCCN(CC(=O)Nc1nc(CC(=O)N2CC(C)OC(C)C2)cs1)C(=O)c1ccc(Cl)c(Cl)c1 (stereo not drawn),2.6,-3.9
NC(=O)C1CCCCN1C(=O)c1cccc(S(=O)(=O)N2CCN(c3ccc(F)cc3)CC2)c1 (stereo not drawn),2.1,0.7
OC(Cn1nnnc1-c1ccccc1)Cn1nnnc1-c1ccccc1,-10.2,-15.2
CC1CN(S(=O)(=O)CCNC(=O)C2C3CC4CC(C3)CC2C4)CC(C)O1 (stereo not drawn),-5.1,-5.1
CC1=NN(Cc2ccccc2)c2nc3c(c(=O)n(Cc4ccccc4)c(=O)n3C)n2C1,10.9,7.3
O=C(COc1c(F)c(F)cc(F)c1F)C12CC3CC(CC(C3)C1)C2,1.8,4.4
Cc1cc(N2CCN(Cc3ccccc3)CC2)n2nc(C(F)(F)F)nc2n1,-0.2,30.1
Cc1nccc(-c2cccc(-n3c(-c4ccc(-c5ccccc5)cc4)csc3=Nc3ccccc3F)c2)n1,0.8,-5.6
FC(F)Sc1ccc2nc(NC3=NCCCCC3)sc2c1,-4.0,-10.5
Cc1c[nH]c(CN2CCCC(CCc3ccccc3F)C2)c(C)c1=O (stereo not drawn),-6.6,-14.0
Nc1[nH]n(-c2ccccc2)c(=O)c1N=Nc1ccc(Cl)cc1,22.6,6.7
Cc1ccccc1-c1noc(CNC(C)Cn2cncn2)n1 (stereo not drawn),8.8,5.5
CC(=O)c1ccc(NC(=O)C(C)Sc2nc(=O)[nH]c(C)c2C(C)=O)cc1 (stereo not drawn),0.7,-6.4
O=C(c1ccc(F)cc1)N(Cc1c(-c2ccc(F)cc2)noc1N1CCOCC1)CC1CCCO1 (stereo not drawn),-8.2,-4.6
CN(CCCn1cccn1)C(=O)C1=NNC(=O)CC1,4.9,3.9
CC1/C(=N\O)C[C@@H]2C[C@H]1C2(C)C (stereo partly drawn),34.1,23.4
OCCC1CN(CC2CCCCC2)CCN1Cc1ccccc1F (stereo not drawn),-4.8,-7.3
COc1cc(OC)cc(C(=O)Nc2cccc(-c3nc4ccc(C)cc4o3)c2)c1,15.1,15.8
CCOCCCn1c(SCC(=O)OCC)nc2cc(S(=O)(=O)N3CCCC(C)C3)ccc21 (stereo not drawn),-5.3,-8.3

# (further entries)
SMILES,NPYLR7 agonist,NPYLR7 agonist max-min
CCn1c(C2CCN(C(=O)c3ccc4c(c3)nnn4C)CC2)nn(C)c1=O,1.1,-3.3
Cc1cc(Oc2cnn(-c3cccc(F)c3)c(=O)c2Nc2cccc(C(=O)NCc3ccncc3)c2)ccc1Cl,-7.2,-0.6
NC(=O)[C@@H](Cc1c[nH]c2ccccc12)NC(=O)[C@@H]1C[C@@H](NS(=O)(=O)c2cccs2)CCN1C(=O)CSCC(=O)O,-8.2,-14.2
Cc1ccccc1-n1c2c(c(=O)[nH]c1=O)C(NC(=O)c1ccccc1)(C(F)(F)F)C(=O)N2 (stereo not drawn),-10.5,-15.4
CCOC(=O)[C@@H]1CN2CCN(C(=O)c3ccccc3)C[C@@H]2[C@H]1c1ccccc1,7.3,18.1
CNC(=O)c1ccc(C(=O)Nc2cc(C3CC4CCC3C4)[nH]n2)cn1 (stereo not drawn),5.6,0.8
CCOC(=O)N1CCN(C(=O)C2CCC(=O)N(CCc3ccccn3)C2)CC1 (stereo not drawn),1.0,-1.3
CCCn1c(=O)c2c(nc3n(CCO)c(C)c(C)n23)n(C)c1=O,2.1,0.9
O=S(=O)(/C=C/c1ccccc1)N1CCc2nc(-c3ccccc3)nc(N3CCCC3)c2C1,-1.6,3.2
CN(C)c1cccc(C(NC(=O)c2ccc(C(F)(F)F)c(F)c2)c2ccc(S(C)(=O)=O)cc2)c1 (stereo not drawn),-11.8,-15.8
